B2AR ag: beta2AR agonists driving receptor internalization, primary screen, cell-based, FAP fluorogen, flow cytometry; Am2.2-beta2AR cells; reference of the scale not given here; response, % (test concentration not listed); Beta-2 adrenergic receptor (Homo sapiens), P07550; 340,000 tested, 0.43% active; AID 504454, 2011;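 active = response above a set limit, near 3 SD of response in nonfluorescent compounds, cut at about 42% in these data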;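 also: stock transfer was 100 nL into about 11 µL; a reference agonist was the positive control; negative values mostly stem from fluorescent compounds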
E coli growth: E. coli growth inhibition, primary screen, OD600. Escherichia coli growth, 23 h; stronger effect = lower value. OD600 absorbance (concentration not given with the values). 330,000 tested, 0.21% active;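 active = OD600 absorbance below the run mean of sample wells minus 3.6 SD, in any replicate, cut at about 0.56 in these data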;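 also: stock transfer was 300 nL into about 60 µL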
Vif A3G: inhibitors of Vif binding to APOBEC3G peptide, primary screen, biochemical, TR-FRET, GST-Vif 1-94, biotin-A3G peptide, dose response retest (AID 1117319); 260,000 tested, 0.57% active; TR-FRET GST-Vif / biotin-A3G peptide binding; higher % means a stronger effect; test concentration not given here; strong numbers were not always called active; one-dose inhibition, %; IC50 in µM for titrated hits;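 active = above the screen mean plus three standard deviations and confirmed in dose response; inconclusive = results disagree or hit not tested in dose response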;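 also: Vif residues 1-94 fused to GST binding biotinylated APOBEC3G peptide 110-148; 0% = full assay without inhibitor and 100% = GST in place of GST-Vif; retest series ran down from 100 µM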
Bfl-1 A1 inh: caspase 3/7 activation in MEF A1-2A-BIM cells, primary screen, A1 inhibitor project, cell-based, luminescence, HTS | AID 2462, 2010 | caspase activation, % (concentration not given with the values) | 330,000 tested, 0.066% active | Caspase-Glo 3/7 luminescence, 3 h; percent of clofoctol response, vehicle zero;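 active = over half of replicate activation scores above 10%, or exactly half above 10 with the replicate mean above 10; inconclusive = replicate mean below 10 yet half the replicates above 10; inactive = over half of replicates below 10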;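 also: wells of about 30 µL received 50 nL stock; many hits fall short of the cut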
HNF4A DNA FP: change in binding of human HNF4A to DNA, primary screen, biochemical, fluorescence polarization, FITC-DNA; Hepatocyte nuclear factor 4-alpha (Homo sapiens), P41235; 1 h; activity change, % at 10 µM; 360,000 tested, 0.3% active; AID 1224865, 2016; in the data active = activity change above about 30%, passing the limit was not always enough;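 also: controls were the assay level and a saturating level of protein; the project sought stronger binding though the title names inhibitors; some compounds called inactive have numbers as strong as hits; positive values seem to mean higher polarization but the record does not say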
Target sequence (P41235 whole entry, looked up): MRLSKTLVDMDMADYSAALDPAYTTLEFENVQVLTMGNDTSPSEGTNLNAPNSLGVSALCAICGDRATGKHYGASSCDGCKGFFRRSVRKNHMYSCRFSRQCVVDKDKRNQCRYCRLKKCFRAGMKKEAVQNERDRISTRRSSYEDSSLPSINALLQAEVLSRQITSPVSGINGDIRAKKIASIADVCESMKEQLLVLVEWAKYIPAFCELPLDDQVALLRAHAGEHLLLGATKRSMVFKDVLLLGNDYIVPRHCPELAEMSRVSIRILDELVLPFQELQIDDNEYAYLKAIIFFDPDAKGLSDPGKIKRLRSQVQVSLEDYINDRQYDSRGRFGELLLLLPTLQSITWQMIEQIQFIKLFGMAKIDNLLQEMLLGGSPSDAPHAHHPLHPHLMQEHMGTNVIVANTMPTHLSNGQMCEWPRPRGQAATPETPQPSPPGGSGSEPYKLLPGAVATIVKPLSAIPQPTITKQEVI
UCH37 DUB inh: inhibitors of human UCH37 deubiquitinase, primary screen, biochemical, Ub-AMC cleavage, fluorescence; purified proteasome/UCH37; 330,000 tested, 0.33% active; Ubiquitin carboxyl-terminal hydrolase isozyme L5 (Homo sapiens), Q9Y5K5; inhibition, % (test concentration not listed); AID 588478, 2011;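 active = mean of two replicates above 20%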;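 also: 0% = compound-free wells with enzyme and 100% = wells lacking proteasome; stock transfer was 100 nL into about 20 µL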
Target sequence (Q9Y5K5 whole entry, looked up): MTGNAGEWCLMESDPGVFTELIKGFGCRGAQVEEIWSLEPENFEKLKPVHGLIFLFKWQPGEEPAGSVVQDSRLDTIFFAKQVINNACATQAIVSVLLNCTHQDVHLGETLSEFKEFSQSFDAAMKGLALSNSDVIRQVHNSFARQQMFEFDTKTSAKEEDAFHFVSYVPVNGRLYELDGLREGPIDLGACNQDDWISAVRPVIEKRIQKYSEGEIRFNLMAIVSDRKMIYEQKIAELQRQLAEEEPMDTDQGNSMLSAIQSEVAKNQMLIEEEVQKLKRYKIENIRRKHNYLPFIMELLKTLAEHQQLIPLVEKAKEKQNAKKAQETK
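Material: Human UCH37 enzyme supplied as purified proteasome complex | Schedule: 30 min preincubation with enzyme, 25 min cleavage at room temperature | Detection: AMC fluorescence 355/460 nm | Measure: % inhibition of Ub-AMC cleavage fluorescence | Controls: Wells without proteasome as full block, compound-free enzyme plus substrate as uninhibited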
LANA-H2A inh: blockers of LANA interaction with H2A/H2B – biochemical, FP readout, HTS, primary screen | Protein LANA1 (Human herpesvirus 8 type P (isolate GK18)), Q9QR71 | cell-free LANA-H2A/H2B peptide, fluorescence polarization | inhibition, % (no concentration beside the values) | 320,000 tested, 0.6% active | AID 2629, 2010; in the data active = inhibition mostly above about 10%, no sharp cut-off; inactive = mostly below about 6.7%;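 also: stock transfer was 7.5 nL into about 10 µL; 0% = median of vehicle wells and 100% = median of positive control wells; one replicate is shown; the record names a cut of 25% in any replicate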
The depositor's hits bear a star; ? = inconclusive; · = not tested or not shown; & = joins results of further samples.

SMILES	B2AR ag	E coli growth	Vif A3G	Bfl-1 A1 inh	HNF4A DNA FP	UCH37 DUB inh	LANA-H2A inh
Cc1ccc(Cn2ccsc2=NC(=O)CCl)cc1	18	0.64	0%	1.3	0.2	-0.2	-3.4
O=C(Cc1cc(=O)[nH][nH]1)N/N=C/C(Cl)=C/c1ccccc1	9&0	·	?	0.8&0.5	0.8&-0.1	·	-1.2&-4.1
CC(C)(C)OC(=O)C[C@H]1C/C=C\C[C@@H](CC(=O)N(CCO)Cc2ccccc2)C(=O)N[C@@H](c2ccccc2)COC1=O	3	·	·	-0.6	0.3	-0.9	0.4
CCc1nnc(NC(=O)CN2C(=O)/C(=C/c3ccc(OC)c(OC)c3)SC2=S)s1	·	0.67	·	1.1	·	2.2	1.4
COC(=O)c1ccc(COC(=O)C2CCN(S(=O)(=O)c3c(Cl)cccc3Cl)CC2)o1	0	0.71	6%	-0.5	-2.2	2.4	0.3
O=[N+]([O-])c1cc(S(=O)(=O)Nc2cccc(Cl)c2)ccc1N/N=C/c1ccc(N2CCOCC2)cc1	2	·	-8%	0.0	2.3	·	-2.3
COc1ccc(C(C#N)C2(C)OCCO2)cc1OC (stereo unspecified)	1	0.67	?	-1.4	6.4	2.9	10
CN(CC(=O)Nc1ccccc1Cl)C(=O)Cn1cnc2ccc(Cl)cc2c1=O	-12	0.71	-4%	-0.7	-2.8	0.7	0.2
CC(=O)c1ccc(S(=O)(=O)N2CCC(NC(=O)c3ccccc3)CC2)cc1	-1	0.69	·	-1.9	2.0	1.5	-1.1
CCn1c(=O)c2c3c(sc2n2cnnc12)CCC3	1	0.66	14%	0.2	1.0	3.8	-2.5
COc1ccc(/C=C/C(=O)NCc2cn(C)nc2C)cc1COc1ccc(Br)cc1	17	0.66	-4%	0.9	-1.2	-0.3	-1.5
CCOC(=O)COc1c(Cl)cc(/C=C2\N=C(C)OC2=O)cc1OC	14	0.62	·	-0.6	-1.2	3.9	1.9
COC(=O)C1Cc2c([nH]c3ccccc23)C2(CCN(Cc3ccccc3)CC2)N1 (stereo unspecified)	-1	0.65	1%	0.3	4.7	2.7	-0.3
COc1ccc(OC)c(S(=O)(=O)Nc2ccc3oc(C)c(C(C)=O)c3c2)c1	-5	0.67	·	0.1	3.5	1.4	-0.6
COc1ccc(-n2c(C)cc(C3=NNC(=NC4CC4)SC3)c2C)cc1	-3	0.69	-1%	·	0.3	2.0	·
CCn1c(=NC(=O)c2ccco2)sc2cccc(F)c21	-9	0.73	-10%	-1.3	5.1	-4.7	-1.0
COc1cccc(CC(=O)NC2CCCN(Cc3ccc(Cl)cc3)C2)c1 (stereo unspecified)	-1	0.68	·	0.7	0.3	0.5	-0.9
COc1ccc(Cn2c(CCC(=O)Nc3ccccc3)nc3cccnc32)cc1	-4	0.72	-7%	-0.1	2.1	1.2	-0.2
CCN(Cc1ccncc1)C(=O)c1cc(COc2ccc(OC)cc2Cl)on1	-26	0.7	10%	-1.3	1.1	0.3	4.0
O=C(CN1C(=O)/C(=C/c2ccc(F)cc2)SC1=S)NC1C=CS(=O)(=O)C1 (stereo unspecified)	9	0.71	·	-0.1	1.5	6.5	7.4
COc1ccc([N+](=O)[O-])cc1NC(=O)c1ccco1	12	0.69	·	-0.1	6.1	4.8	-0.8
O=C(CSc1c2c(nc3cc(Cl)ccc13)CCCC2)NCc1ccco1	2	0.65	?	-0.2	2.8	4.9	0.7
CN(Cc1c(F)cccc1Cl)C(=O)c1cccc(S(=O)(=O)NCc2ccccc2)c1	6	0.69	2%	0.4	0.2	2.8	-3.2
CC(C)(C)NC(=O)C(c1ccncc1)N(Cc1ccc(F)cc1)C(=O)c1ccc(-c2ccccc2)[nH]1 (stereo unspecified)	0	0.69	-5%	0.2	0.7	-0.2	-0.3
Cc1nc2nc[nH]n2c(=O)c1NC(=O)c1cccc(OCC(C)C)c1	-6	0.72	?	-0.1	2.1	-0.1	-3.4
O=C(O)c1cccc(NC(=S)NC(=O)c2ccc(-c3ccccc3)cc2)c1	1	0.68	-6%	-7.3	2.1	0.5	-3.3
COCCNC(=O)CC(NS(=O)(=O)c1ccc(NC(C)=O)cc1)C(C)C (stereo unspecified)	9	0.78	16%	0.1	-1.1	1.6	3.5
CCCC(=O)Nc1ccc(Cl)c(NC(=O)c2cccnc2)c1	20	0.69	1%	-0.4	2.4	1.3	1.5
CCCc1cc(=O)[nH]c2nnc(SCC(=O)Nc3ccc(NC(C)=O)cc3)n12	0	0.7	3%	-1.6	-0.5	-0.4	1.3
CC(=O)c1c(C)oc2ccc(O)c(CN3CCOCC3)c12	0	0.65	4%	1.0	0.4	6.3	-3.6
CC(CCc1ccccc1)NC(=O)C1CCN(S(=O)(=O)c2cnc[nH]2)CC1 (stereo unspecified)	5	0.72	0%	0.1	-0.8	2.5	-0.7
Cc1ccc(N(CC(=O)N2CC(=O)Nc3ccccc32)S(=O)(=O)c2ccc3c(c2)OCCO3)cc1	20	0.68	-3%&28%	1.0	-9.7	-0.2	-1.3
COc1ccc(CN2CCCC(CNC(=O)c3ccc(F)cc3)C2)c(F)c1 (stereo unspecified)	-1	0.69	-2%	-0.7	-2.8	4.1	5.6
CCOC(=O)CN(c1ccccc1C)S(=O)(=O)c1ccc(Cl)cc1	-5	0.71	·	0.3	-2.0	-0.1	-0.2
O=C(CNC(=S)NC(=O)C1CCCCC1)c1ccccc1	0	0.69	5%	-0.1	-1.8	1.1	-3.2
O=C(COC(=O)c1cccnc1)NC1CCCc2ccccc21 (stereo unspecified)	9	0.72	-1%	·	-1.7	-0.5	·
O=C(N1CCCCCC1)N1CCN(S(=O)(=O)N2CCCCC2)CC1	-2	0.74	16%	0.5	3.2	1.0	-1.4
COCCN(CC(=O)Nc1cccc(C)c1C)C(=O)C1(c2ccccc2)CC1	1	0.7	·	-0.2	0.5	1.5	0.0
COc1cc2c(cc1O)[C@@H]1Cc3cc(OC)c(OC)cc3C(C2)N1C	-3	·	·	-0.2	-3.8	-0.4	0.2
Cn1c(C(=O)NCCCN2CCCCC2)cc2sccc21	-8	0.66	2%	-0.7	0.7	2.6	-3.7
CC1CCCCN1C(=O)CSc1nnc(-c2ccccc2O)o1 (stereo unspecified)	-7	0.69	·	0.0	-6.7	0.4	0.1
COc1ccc(OC)c(S(=O)(=O)N2CCC(C(=O)Nc3ccc(C)c(C)c3)CC2)c1	13	0.69	8%	-0.2	-1.8	1.8	0.2
O=C(OCC(=O)N1CCOCC1)c1ccc2c(c1)OCCO2	1	0.72	?	0.4	0.7	5.1	4.1
Cc1ccc(C)n1-c1nn(S(=O)(=O)c2cccc3cccnc23)c2cccc(F)c12	4	0.7	-4%	1.5	5.7	2.1	14
CCOC(=O)C1=C(COC(=O)COc2ccccc2OCC)NC(=O)NC1C (stereo unspecified)	5	0.69	-3%	-0.4	-0.7	5.6	-0.9
Cc1[nH]c(=O)c(C(=O)c2ccccc2O)cc1C(=O)O	-2	0.67	·	0.4	-1.9	7.5	2.5
c1ccc(CNCC2COc3ccccc3O2)cc1 (stereo unspecified)	3	0.71	4%	1.5	1.9	1.0	1.5
Cc1cc(C(=O)OCC(=O)Nc2cc(S(=O)(=O)N(C)C)ccc2C)c(C)o1	·	0.63	6%	-0.4	·	-0.3	-8.7
CSc1nc2c(c(=O)[nH]1)C(c1cccc(Br)c1)CC(=O)N2 (stereo unspecified)	4	0.7	15%	1.1	0.9	-0.1	1.6
Cc1ccc(F)cc1NC(=S)NCCc1ccccc1	-6	0.73	6%	0.0	1.3	1.7	-8.3

(further entries)
SMILES	B2AR ag	E coli growth	Vif A3G	Bfl-1 A1 inh	HNF4A DNA FP	UCH37 DUB inh	LANA-H2A inh
COc1ccc2cc(C(C)C(=O)N3CCC(C(N)=O)CC3)ccc2c1 (stereo unspecified)	-10	0.68	·	-0.3	1.6	1.4	-9.4
N#Cc1ccc(OC(=O)C2CCN(C3=NS(=O)(=O)c4ccccc43)CC2)cc1	3	0.68	-1%	-0.9	3.7	2.0	-1.1
c1ccc2c(-c3nnc(SCc4cn5ccccc5n4)o3)c[nH]c2c1	4	0.62	-1%	-0.2	-3.4	-0.6	-3.4
COc1ccc(CN(C(=O)CNC(=O)c2ccco2)C(C(=O)NCC2CCCO2)c2ccccc2)cc1 (stereo unspecified)	0	0.7	·	0.5	-1.7	6.0	-3.7
Cc1ccc(N2CC(C(=O)NC3CCSC3=O)CC2=O)cc1 (stereo unspecified)	-4	0.71	11%	0.5	7.3	2.4	-2.8
N#CCCN1CCN(S(=O)(=O)c2ccc(S(=O)(=O)NC3CCCC3)cc2)CC1	2	0.72	5%&-6%	0.6	0.4	1.5	1.7
COc1ccc(Cl)cc1S(=O)(=O)N1CCCc2ccccc21	-2	0.7	·	0.1	0.6	3.1	4.2
CC(=O)Nc1cccc(/C(C)=N/NC(=S)NC(C)C)c1	-6	·	0%	-0.1	-1.1	·	-5.4
CC(=O)C1CCC2C3CCC4=CC(=O)C=CC4(C)C3C(=O)CC12C (stereo unspecified)	-4	0.65	1%	·	0.9	0.7	·
COc1ccccc1C(=O)NC(=S)Nc1ccccc1N1CCCC1	-5	·	-3%	-0.3	2.1	·	0.7

Continued, overlapping the part above by 3 compounds.
SMILES	B2AR ag	E coli growth	Vif A3G	Bfl-1 A1 inh	HNF4A DNA FP	UCH37 DUB inh	LANA-H2A inh
CC(=O)Nc1cccc(/C(C)=N/NC(=S)NC(C)C)c1	-6	·	0%	-0.1	-1.1	·	-5.4
CC(=O)C1CCC2C3CCC4=CC(=O)C=CC4(C)C3C(=O)CC12C (stereo unspecified)	-4	0.65	1%	·	0.9	0.7	·
COc1ccccc1C(=O)NC(=S)Nc1ccccc1N1CCCC1	-5	·	-3%	-0.3	2.1	·	0.7
Cc1ccccc1C(=O)NCC(c1ccco1)N1CCc2ccccc2C1 (stereo unspecified)	-5	0.7	0%	0.3	-3.4	-2.3	-0.7
CCC1(c2ccccc2)NC(=O)N(CC(=O)Nc2ccc(N3CCOCC3)cc2)C1=O (stereo unspecified)	-1	0.72	·	0.8	1.6	1.7	2.8
COc1ccc(N2CCN(C(=O)CN(C)S(=O)(=O)c3cccs3)CC2)cc1	-5	0.71	·	0.3	1.1	2.5	1.6
CN(C)/C=C1\C(=O)N(c2ccc([N+](=O)[O-])cc2)N=C1c1ccccc1	-4	0.71	18%	0.2	-1.7	9.7	-1.4
COc1ccccc1/C=C1\SC(=O)N(CCC(=O)N(C)C2CCS(=O)(=O)C2)C1=O (stereo unspecified)	-11	0.69	-5%	-0.4	-0.2	4.5	2.6
C=C(C)CNC(=S)N/N=C(\C)c1ccc(Cl)s1	-12	·	-4%	0.8	0.8	·	0.7
COc1ccc2c(c1)c(C)cc[n+]2Cc1ccccc1	5	0.69	·	0.9	-1.5	-177	-4.0
O=C1c2ccccc2C(Nc2ccc3c(c2)OCCO3)N1Cc1ccco1 (stereo unspecified)	2	0.74	10%	-0.3	-1.9	2.4	2.6

Limited to LANA-H2A inh, Vif A3G and UCH37 DUB inh, for 2 of the compounds above:
compound | LANA-H2A inh | Vif A3G | UCH37 DUB inh
C=C(C)CNC(=S)N/N=C(\C)c1ccc(Cl)s1 | 0.7 | -4% | ·
Cc1ccccc1C(=O)NCC(c1ccco1)N1CCc2ccccc2C1 (stereo unspecified) | -0.7 | 0% | -2.3
